Mtb betalactam = beta-lactam sensitization of Mtb H37Rv. inhibition, % at 25 µM. 0.27% of 330,000 active. AID 434955. M. tuberculosis H37Rv growth with meropenem, percent inhibition; hits of this screen are not shown here;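 active = about 74% or more and at least 40 points above the plate without the antibiotic, then above 30% in a dose series; inconclusive = first-round hits that could not be retested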;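 also: growth measured after seven days incubation then overnight dye step; 0% = bacteria only wells and 100% = bacteria with antibiotic; twin plates without the antibiotic show which effects depend on it; some results filed as inactive read as strong as hits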
Mtb growth = M. tuberculosis H37Rv growth inhibitors, H37Rv strain (AID 1626) | M. tuberculosis H37Rv growth inhibition; higher % means a stronger effect | inhibition, % at 10 µM; hits with a dose series show IC50 in µM | 0.95% of 220,000 active;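 active = confirmed in a dose series; inconclusive = inhibition above 80% but not taken into the dose series; inactive = below 80% or under 30% at every dose of the series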;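 also: bacteria incubated seven days before Alamar blue readout; 0% = bacteria only wells and 100% = bacteria with antibiotic wells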
Arbovirus anti = blocks arbovirus infection; arbovirus infection cell-based antiviral screen; inhibition, % at 10 µM; 0.37% of 200,000 active; AID 1251;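 active = inhibition from about 30%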;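 also: bluetongue infection of BSR cells; cell survival read as ATP light after 72 h; 0% = infected wells without compound and 100% = uninfected wells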
RecA splice inh = Mtb RecA intein splicing inhibition; cell-free RecA intein splicing, fluorescence; inhibition, %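 (about 9 µM by stock and volumes)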; 0.75% of 290,000 active; AID 2221; in the data active = inhibition above about 30%; inconclusive = no clear call, values can overlap the other calls;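 also: 0% = vehicle wells and 100% = reference inhibitor control wells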
Target sequence (P9WHJ3 whole entry, looked up, canonical isoform): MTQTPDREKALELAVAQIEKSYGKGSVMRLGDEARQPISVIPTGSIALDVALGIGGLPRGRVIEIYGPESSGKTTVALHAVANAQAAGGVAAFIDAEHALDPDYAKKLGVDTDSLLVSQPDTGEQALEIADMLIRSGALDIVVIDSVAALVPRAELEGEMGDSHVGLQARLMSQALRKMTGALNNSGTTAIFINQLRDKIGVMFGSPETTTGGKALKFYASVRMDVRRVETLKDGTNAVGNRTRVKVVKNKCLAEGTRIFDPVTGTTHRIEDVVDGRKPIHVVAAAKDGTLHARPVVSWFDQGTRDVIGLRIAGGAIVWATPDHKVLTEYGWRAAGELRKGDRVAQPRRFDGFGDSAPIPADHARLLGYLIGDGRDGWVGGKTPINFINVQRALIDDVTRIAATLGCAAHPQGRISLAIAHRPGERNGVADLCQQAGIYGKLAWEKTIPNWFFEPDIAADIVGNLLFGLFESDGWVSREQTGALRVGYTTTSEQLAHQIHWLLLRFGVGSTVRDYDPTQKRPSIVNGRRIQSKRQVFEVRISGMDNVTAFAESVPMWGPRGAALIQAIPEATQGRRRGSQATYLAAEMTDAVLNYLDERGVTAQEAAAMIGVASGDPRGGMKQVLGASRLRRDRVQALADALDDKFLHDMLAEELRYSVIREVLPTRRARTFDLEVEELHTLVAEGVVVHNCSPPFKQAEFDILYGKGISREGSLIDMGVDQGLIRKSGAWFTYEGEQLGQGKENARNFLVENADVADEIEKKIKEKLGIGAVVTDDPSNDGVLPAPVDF
YopH inh = inhibitors of Yersinia enterocolitica YopH tyrosine phosphatase; 0.16% of 140,000 active; AID 898; inhibition, %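 (about 10 µM by stock and volumes)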; fluorescence Ex485/Em525;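 active = inhibition of 50% or more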;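 also: controls were vehicle for no effect and minimum signal wells for full effect; inactives centre near -20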
Arbovirus anti repeat = recorded beside Arbovirus anti, whose call it bears; inhibition, %; measured here: 10K subset replicate screen; many hits read low in the repeat;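 first of two repeat runs on a subset; 0% = infected and 100% = uninfected wells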
Numbers without * were called inactive; ? = inconclusive; . = no result given; & = joins results of further samples. Only part of the results is shown; the hit share may differ from the screen's.

A first look, two compounds:
SMILES	Mtb betalactam	Mtb growth	Arbovirus anti	RecA splice inh	YopH inh	others
CNCCCOc1cc(C)cc(C)c1C	-8	0%	-1	-0.9	.
Cc1cc(NC(=O)c2nn(C)c(C)c2Br)no1	-11	.	.	-1.3	.

The list itself, from the start:
SMILES	Mtb betalactam	Mtb growth	Arbovirus anti	RecA splice inh	YopH inh	others
CNCCCOc1cc(C)cc(C)c1C	-8	0%	-1	-0.9	.
Cc1cc(NC(=O)c2nn(C)c(C)c2Br)no1	-11	.	.	-1.3	.
Cc1csc(NC(=O)CN2C(=O)c3ccccc3C2=O)c1C(N)=O	2	-3%	.	-1.7	.
CC1CCN(c2nc3c(c(=O)n(C)c(=O)n3C)n2CCSc2ncccn2)CC1	-5	5%	2	13	.	Arbovirus anti repeat=0
CC1=CC(=O)C(C(C)C)=C/C1=C(\c1cc(C(C)C)c(OP(=O)(O)O)cc1C)c1ccccc1C(=O)O	?	.	.	5.4	.
COc1cc(CNC(=O)CCCC/C=C\C(C)C)ccc1O	6	11%&7%	-3	2.8	.
Cc1nnc(SCCn2c(N3CCCC(C)C3)nc3c2c(=O)[nH]c(=O)n3C)s1 (configuration not stated)	15	-12%	-2	-2.1	-5
CCOc1ccc(OCC)c(NC(=O)CN2CCN(c3cccc(C)c3C)CC2)c1	-1	-1%	-4	.	-9
CCC(CC)C1C(C#N)=C(N)Oc2c1c(=O)oc1ccccc21 (configuration not stated)	-10	-11%	-14	6.4	-4
COc1ccc(N(CCCN2C(=O)c3cccc4cccc(c34)C2=O)C(=O)c2cccnc2)cc1	4	2%	11	4.2	.
CCCCOP(=O)(OCCCC)C1(NS(=O)(=O)c2ccccc2)C=CC(=O)c2ccccc21 (configuration not stated)	-2	-2%	-31	88*	-37
O=C(CN(C(=O)c1csnn1)c1ccccc1F)NCc1ccc2c(c1)OCO2	0	.	.	-4.9	.
CC1(c2nnc(-c3cccc(Cl)c3)o2)CC(c2cccc(F)c2)=NO1 (configuration not stated)	-6	-8%	.	5.8	.
COc1ccccc1C(=O)Nc1ccc2c(C)cc(=O)oc2c1	3	.	.	-0.1	.
O=C(Nc1nnc(Cc2ccc(Cl)cc2)s1)c1ccco1	6	-8%	-31	-1.5	-58
COc1ccc([N+](=O)[O-])cc1NC(=O)c1cn(-c2ccc(C)c(C)c2)c(=O)c2ccccc12	12	-5%	-5	-8.6	-28
COc1ccc(OC)c(NC(=O)CCNC(=O)Cn2cnc3ccccc3c2=O)c1	-9	1%	5	1.7	.
O=C(NC1CC1)c1cc2c(s1)CS(=O)(=O)C2	9	3%	-1	-2.7	.
O=C(Nc1nccs1)c1ccc(Cl)cc1[N+](=O)[O-]	1	4%	3	-0.8	-24
CCOc1c(S(=O)(=O)N2CCCC2)ccc(Cl)c1Cl	-1	5%	12	0.7	-2
Cc1cc(C(F)F)n2ncc(C(=O)N3CCc4ccccc4C3)c2n1	-7	-4%	-5	2.1	12
CSc1n[nH]c(NC2=CC(=O)CCC2)n1	1	6%	7	0.5	-28
Cc1ccc(S(=O)(=O)CCc2ccccn2)cc1	10	5%	-4	-0.6	-41
COc1ccccc1N1CCN(C(=O)c2noc(C)c2[N+](=O)[O-])CC1	5	.	.	6.0	.
CC(=O)N1c2c(cc(Br)cc2S(=O)(=O)NCc2ccc3c(c2)OCO3)CC1C (configuration not stated)	2	-3%	9	-3.5	-42
FC(F)(F)c1cc(-c2ccco2)nc(NCc2ccco2)n1	-6	3%	2	7.7	-13	Arbovirus anti repeat=1
COc1cccc(-c2nnc(SCCC(=O)O)n2C)c1	-18	-1%	1	0.0	-33
Nc1nc(-c2ccc(Oc3ccccc3)cc2)cs1	-6	.	.	1.2	.
COc1ccc(-c2nnc(SCC(=O)NCC3CCCO3)o2)cc1 (configuration not stated)	5	.	.	-2.6	.
O=C(NCCc1ccccc1)C1CCCN(S(=O)(=O)c2cccc3nonc23)C1 (configuration not stated)	4	-2%	3	-1.5	-8
O=C(Oc1ccccc1N1C(=O)C2CCCCC2C1=O)c1ccccc1 (configuration not stated)	10	.	3	-1.2	-23
CC1CCCC(C)N1NC(=O)c1cccc(S(=O)(=O)N2CCc3ccccc32)c1 (configuration not stated)	3	7%	-4	2.5	.
Cc1ccc(-n2ncc3c(NCCCN4CCCC4=O)ncnc32)c(C)c1	0	-11%	6	-0.7	-29
Cn1cnnc1SCC(=O)Nc1sc2c(c1C(N)=O)CCC2	-4	-2%	-29	-0.8	-19
COCC(=O)N1CCC(Oc2ccc(C(=O)NC3CCOC(C)(C)C3)cc2)CC1 (configuration not stated)	?	.	.	2.4	.
O=C(c1ccccc1NS(=O)(=O)c1cccc([N+](=O)[O-])c1)N1CCCC1	?	.	.	0.4	.
C=CCNC(=S)N1CCc2c([nH]c3ccccc23)C1C (configuration not stated)	1	3%	8	0.3	.
CNc1nc(SCC(=O)OC)nc(N2CCOCC2)n1	2	-8%	3	-1.1	-37	Arbovirus anti repeat=-1
Cn1c(SCCOc2ccccc2Cl)nnc1-c1ccncc1	-2	-7%	-17	-1.0	41
C/C(=N\Nc1ccc([N+](=O)[O-])cc1)c1ccc(N)cc1	-16	?	-10	-5.3	2
CC(C)CNS(=O)(=O)c1ccc(S(=O)(=O)N2CCCN(Cc3ccccc3)C2)cc1	-4	3%	2	0.0	-42
COC(=O)N/N=C(\C)c1ccc(OC(F)F)cc1OC(F)F	-1	0%	9	-0.7	-22
COCc1cc(=O)n2[nH]c(-c3cccc(Br)c3)cc2n1	40	2%	-5	-0.1	-17	Arbovirus anti repeat=8
CCCCn1c(=O)c(C(=O)NCc2ccccc2OC)c(O)c2ccccc21	0	.	.	-3.7	.
COc1ccc(-n2ncc3c2CC(C)(C)CC3NC(=O)c2ocnc2C)cc1 (configuration not stated)	1	.	.	-0.3	.
COCc1nnc(NC(=O)CCSc2ccccc2)s1	-11	-5%	2	.	-42
Cc1ccc(NC(=O)CCc2nc3sc4c(c3c(=O)[nH]2)CCCC4)c(Br)c1	-12	.	.	2.6	.
CC(=O)N1CCc2ccccc2C1CC(=O)O (configuration not stated)	2	5%	-2	-0.1	.
Cc1nc2ccc(S(=O)(=O)Nc3cccc(-c4nc5cccnc5s4)c3C)cc2s1	0	7%	7	5.4	-37
O=C(Cc1ccc(O)cc1)N/N=C/c1cccs1	3	.	.	4.3	.
CCOc1ccc(NC(=O)N2CCC(n3c(=O)[nH]c4ccccc43)CC2)cc1	3	8%	-4	3.5	-29	Arbovirus anti repeat=-2
COc1cc(C(=O)NCCC(=O)N2CCC3(CC2)NCCc2[nH]cnc23)cc(OC)c1OC	7	.	.	0.3	.
CC1CCC(NC(=O)Cn2c(=O)oc3cc(S(=O)(=O)N4CCCC4)ccc32)CC1 (configuration not stated)	0	.	.	-1.7	.
Cc1ccc(N(C(=O)c2cc3ccccc3oc2=O)C2C=CS(=O)(=O)C2)cc1 (configuration not stated)	2	-9%	8	-4.6	-22
S=c1nc(-c2ccccc2)n(Cc2ccco2)c2c1CCCC2	.	-6%	1	.	-43
Cc1ccc(NC(=O)c2cnn(-c3ccccc3)c2C)cc1C	6	.	.	-0.2	.
Cc1ccc(C)c(S(=O)(=O)NNC(=O)Nc2ccccc2Cl)c1	5	.	.	4.4	.
COc1ccc(-c2csc(NC(=O)C3CCN(C(=O)c4ccc(F)cc4)CC3)n2)cc1OC	92	.	.	3.5	.
Cc1cccc(C)c1NC(=O)N1C2CCCC1CC(NC(=O)C(C)(C)C)C2 (configuration not stated)	-4	-3%	0	-0.4	-36
Cc1ccccc1SCC(=O)Nc1cccc(C#N)c1	0	-3%	3	4.3	2

3 structures already listed, arranged by molar mass, low to high.
SMILES	Mtb betalactam	Mtb growth	Arbovirus anti	RecA splice inh	YopH inh	others
C/C(=N\Nc1ccc([N+](=O)[O-])cc1)c1ccc(N)cc1	-16	?	-10	-5.3	2
COCc1nnc(NC(=O)CCSc2ccccc2)s1	-11	-5%	2	.	-42
CC1(c2nnc(-c3cccc(Cl)c3)o2)CC(c2cccc(F)c2)=NO1 (configuration not stated)	-6	-8%	.	5.8	.

(further entries)
SMILES	Mtb betalactam	Mtb growth	Arbovirus anti	RecA splice inh	YopH inh	others
CC1=NN(c2ccccc2C(=O)O)C(=O)C1N=Nc1ccccc1 (configuration not stated)	-2	.	.	7.9	.
Cc1ccc(S(=O)(=O)Oc2cccc(/C=N/Nc3ccc(C(=O)O)cc3)c2)cc1	16	8%	.	1.1	.
Cn1ncc(N2CCN(S(=O)(=O)c3ccc(Br)cc3)CC2)c(Cl)c1=O	0	12%	1	-3.1	.
CCCCCCC(=O)Nc1ccc(C(=O)N/N=C/c2cccnc2)cc1	-4	5%	3	1.3	-18
O=c1ccc(-c2ccc(S(=O)(=O)N3CCN(c4ccccc4)CC3)o2)n[nH]1	-8	.	.	-2.3	.
CCc1cc(=O)n2[nH]c(C)c(-c3ccc(OC)cc3)c2n1	3	.	.	-1.4	.
COc1cc(NC(=O)CSc2nc(C)c(C)c(C)n2)cc(OC)c1	-2	7%	7	-1.7	.
NS(=O)(=O)c1ccc(CCNC(=O)C2CCCN2C(=O)OCc2ccccc2)cc1 (configuration not stated)	-10	-2%	-1	-0.3&3.5	-32
CCn1c(N2CCN(CC(=O)c3ccc(OC)cc3)CC2)nc2ccccc21	.	-5%	-3	.	-28
CC(C)[C@H](NC(=O)[C@@H]1Cc2ccccc2CN1C(=O)OC(C)(C)C)C(=O)NCC1CCC(C(=O)O)CC1 (some centres not stated)	0	-5%	.	-2.1	.
CC(C)CCn1c(CN(C)Cc2ccccc2)nc2c1c(=O)n(C)c(=O)n2C	0	-11%	-13	6.0	-15
O=C(CNCC1CCCCC1)Nc1ccc(OC(F)(F)F)cc1	-7	-5%	-9	-2.8	.
O=C(NC1CC1)C1=C[C@H](c2coc3ccccc3c2=O)C[C@H](OCCCCO)O1	-2	-8%	.	-2.4	.
Cc1cc(N2CCC(C(=O)NC3CCCCC3)CC2)nc(-c2ccccc2)n1	-7	1%	0	1.6	-25
N#Cc1cccc(C#N)c1N1CCC(C#N)CC1	2	1%	-5	-0.6	.
COc1ccccc1NC(=O)C(C)OC(=O)CCNS(=O)(=O)c1ccc(C)c(C)c1 (configuration not stated)	12	.	.	-5.1	.
Cc1ccccc1NS(=O)(=O)c1ccc(OCC(=O)N2CCN(C)CC2)cc1	-13	.	.	-4.4	.
COC(=O)c1ccc(C23CC4(C2)[C@H](CN(Cc2cccnc2)[C@@H]4c2ccccc2)C3c2ccccc2)cc1 (some centres not stated)	62	5%	.	11	.
CCOc1ccccc1N=C1SC(CC(=O)Nc2ccc(OC)cc2OC)C(=O)N1CCC1=CCCCC1 (configuration not stated)	22	14%	7	0.2	-7
O=c1c2c3c(sc2ncn1/N=C/c1ccccc1)CCCC3	7	0%	1	1.6	-5
O=C(Nc1ccc(N2CCCCC2)cc1)c1ccccn1	-3	10%	-8	.	.
CCOC(=O)c1ccc(NC(=O)CN2CCN(Cc3ccccc3)CC2)cc1	13	6%	-12	-0.7	.
Cc1ccc(C(=O)N2CCc3cc4c(cc3C2C)OCCCO4)cc1 (configuration not stated)	-7	.	.	5.6	.
COc1ccc(-c2cn3cc(C(F)(F)F)cc(Cl)c3n2)cc1	99	66%	-15	-0.7	.
CCOC(=O)Oc1ccc2c(=O)c(Oc3cc(C)cc(C)c3)coc2c1	4	-2%	2	0.3	-4
N#CCC(=N)N1CCN(c2ccccc2)CC1	-4	-10%	-8	7.7	-31
CC1CCN(c2ccc(/C=N\Nc3nncn3N)cc2[N+](=O)[O-])CC1	0	6%	-13	.	-9
CC(=O)Nc1nnc(SCC(=O)c2ccc3c(c2)Cc2ccccc2-3)s1	-11	3%	-3	-1.6	-26
CCCNc1nc(OC)nc(N2CC3CC(C2)c2cccc(=O)n2C3)n1 (configuration not stated)	7	-6%	20	-6.5	.
O=c1c(-c2ccc(F)cc2)coc2c3c(ccc12)OCCO3	2	-9%	2	-3.3	20
Cc1nc2c(C)cccc2cc1C(=O)N/N=C/c1cccc([N+](=O)[O-])c1	1	6%	1	2.0	-17

Looked up by compound from the entries so far:
SMILES	Mtb betalactam	Mtb growth	Arbovirus anti	RecA splice inh	YopH inh	others
COc1ccc(-c2cn3cc(C(F)(F)F)cc(Cl)c3n2)cc1	99	66%	-15	-0.7	.
Cc1ccc(C(=O)N2CCc3cc4c(cc3C2C)OCCCO4)cc1 (configuration not stated)	-7	.	.	5.6	.
CCCNc1nc(OC)nc(N2CC3CC(C2)c2cccc(=O)n2C3)n1 (configuration not stated)	7	-6%	20	-6.5	.

Assay outcomes deposited in PubChem BioAssay by several laboratories.
